# Sa growth inh = S. aureus growth inhibition at 42 and 30 °C, primary screen, LtaS inhibitor project, RN4220, two temperatures | relative growth, % (no concentration beside the values) | OD600, 20 h, 42 °C; stronger effect = lower value | actives 0.53% (n = 170,000);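 active = growth at 42 °C up to 50% and 20 or more points under that at 30 °C, or under 10% at both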;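 also: 300 nL library stock went into each well; scaled to the means of positive and negative controls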
# HCMV UL50-53 inh = inhibitors of HCMV UL50-UL53 interaction, biochemical, HTRF; HCMV UL50-UL53 nuclear egress complex (human cytomegalovirus); normalized percent inhibition; inhibition, % (concentration not given with the values); actives 0.15% (n = 190,000); AID 1918969, 2023;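 active = both replicates at 50% or more, plus weaker picks with an unusually low signal ratio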;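 also: stock transfer was 100 nL into about 20 µL; 0% = negative control wells and 100% = wells with untagged competitor protein; inactives centre near -12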
# GIV-Gai inh = inhibitors of GIV peptide binding to Galpha-i3, primary screen, biochemical, fluorescence polarization, FITC-GIV GBA peptide, rat Galphai3. Guanine nucleotide-binding protein G(i) subunit alpha-3 (Rattus norvegicus), P08753. 90 min; stronger effect = lower value; scaled: aluminum fluoride 0%, vehicle 100%. percent of control (FP), % (concentration not given with the values). actives 0.42% (n = 210,000);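 active = replicate mean at 85% of control or lower, very high polarization wells dropped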;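 also: wells of about 15 µL received 100 nL stock; the first replicate is given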
# Target sequence (P08753 whole entry, looked up): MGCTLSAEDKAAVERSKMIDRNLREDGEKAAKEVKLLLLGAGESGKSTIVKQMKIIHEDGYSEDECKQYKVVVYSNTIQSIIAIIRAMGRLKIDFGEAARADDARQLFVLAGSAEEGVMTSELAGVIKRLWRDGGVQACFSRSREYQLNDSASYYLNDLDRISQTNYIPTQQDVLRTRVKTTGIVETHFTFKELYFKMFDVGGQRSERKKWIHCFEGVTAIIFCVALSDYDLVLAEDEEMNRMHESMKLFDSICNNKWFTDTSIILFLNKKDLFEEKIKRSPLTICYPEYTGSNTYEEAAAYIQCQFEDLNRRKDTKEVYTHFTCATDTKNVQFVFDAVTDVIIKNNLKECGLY
# Sa growth inh second temp = further read-out of Sa growth inh, marked with its call; relative growth, %; measured here: growth at 30 °C;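 optical density after 20 h as mean of two plates; 100% = untreated growth and lower means inhibition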
# Active calls of the source: *; x = no result given.
nr	SMILES	Sa growth inh	Sa growth inh second temp	HCMV UL50-53 inh	GIV-Gai inh
1	CCC(NC(=O)c1ccccc1NC(=O)C(C)(C)C)C(=O)N1CCCC1 (stereo not drawn)	101	99	-1	x
2	Cc1cccc(CNS(=O)(=O)c2ccc(-c3cnc(C4CC4)o3)cc2)c1	90	89	x	103
3	Cc1ccc(S(=O)(=O)NCC(Sc2nnc(-c3cccs3)n2C2CC2)c2ccccc2)cc1 (stereo not drawn)	115	103	3	x
4	CC1(C(=O)NC2CCCC2)Cn2cnc(C(=O)Nc3ccc(F)cc3Cl)c2C(=O)N1C1CC1 (stereo not drawn)	x	x	-19	107
5	CN(C(=O)c1ccc(-n2cnnn2)cc1)C1CC(C)(C)N(C)C(C)(C)C1	92	89	-18	98
6	Cc1oc2c(C)c(OC(=O)c3ccco3)ccc2c(=O)c1-c1nc2ccccc2s1	86	85	-9	104
7	Cc1noc(C)c1CSc1nc2ccccc2c(=O)n1CCc1ccc(S(N)(=O)=O)cc1	120	99	17	x
8	COc1ccc(F)cc1-c1cc(N2CCN(S(=O)(=O)c3cc(F)ccc3F)CC2)ncn1	x	x	-33	104
9	CCNc1c(NS(=O)(=O)c2cccc(C#N)c2)c(=O)oc2ccccc12	104	87	x	105
10	CN(C)S(=O)(=O)N(Cc1ccc(C(C)(C)C)cc1)c1ccccc1	110	104	3	103

# New compounds follow.
nr	SMILES	Sa growth inh	Sa growth inh second temp	HCMV UL50-53 inh	GIV-Gai inh
11	C=CCOc1ccc(-c2ccc(C#N)cc2)cc1	88	92	-7	x
12	Cc1cc(F)ccc1S(=O)(=O)Nc1ccccc1C(=O)Nc1cccnc1	87	72	1	x
13	COC(=O)CNC(=O)N1Cc2c(C)nn(-c3ccccc3)c2-n2cccc2C1c1cccc(C)c1 (stereo not drawn)	x	x	-11	101
14	O=C(Nc1ccc2oc(-c3cccc4ccccc34)nc2c1)c1ccc([N+](=O)[O-])cc1[N+](=O)[O-]	x	x	-22	102
15	O=C(Nc1ccc(F)c(F)c1)c1sc2ccccc2c1Cl	88	85	-19	93
16	Cc1ccc(NC(=O)C2CCC(CNS(=O)(=O)c3cccs3)CC2)cc1C (stereo not drawn)	119	85	x	101
17	CCOC(=O)c1c(N)n(CC(C)NC(=O)COc2ccccc2)c2nc3ccccc3nc12 (stereo not drawn)	109	92	-25	x
18	CC(C)N(C(=O)c1noc2c1CCc1sccc1-2)C1CCCCC1	101	79	13	105
19	CCCCc1ccc(C(=O)Nc2cc3cccc(OC)c3oc2=O)cc1	107	78	-20	101
20	CCc1ccc(N2NC(=O)/C(=C/c3ccc4c(c3)n(C)c(=O)n4C)C2=O)cc1	103	84	x	102

# Molecules above containing two or more sulfur atoms:
nr	SMILES	Sa growth inh	Sa growth inh second temp	HCMV UL50-53 inh	GIV-Gai inh
3	Cc1ccc(S(=O)(=O)NCC(Sc2nnc(-c3cccs3)n2C2CC2)c2ccccc2)cc1 (stereo not drawn)	115	103	3	x
7	Cc1noc(C)c1CSc1nc2ccccc2c(=O)n1CCc1ccc(S(N)(=O)=O)cc1	120	99	17	x
16	Cc1ccc(NC(=O)C2CCC(CNS(=O)(=O)c3cccs3)CC2)cc1C (stereo not drawn)	119	85	x	101

# More records follow:
nr	SMILES	Sa growth inh	Sa growth inh second temp	HCMV UL50-53 inh	GIV-Gai inh
21	COc1ccc2c(c1)CCc1c(C(=O)N3CCCCC3)noc1-2	84	76	-22	100
22	CC(C)c1nn2c(=O)cc(COC(=O)COc3ccccc3F)nc2s1	111	94	x	109
23	CCc1cccc(C)c1NC(=O)c1cc(S(=O)(=O)N(Cc2ccc(C(=O)OC)cc2)Cc2ccc(OC)c(OC)c2)ccc1F	147	100	x	107
24	CC(C)CCn1c(=O)c2ccccc2n2c(=O)n(CC(=O)Nc3ccccc3F)nc12	x	x	-5	96
25	CCSc1nnc(CCNC(=O)NC2CCCCC2)n1C	90	85	3	99
26	Cc1ccc(C2=NS(=O)(=O)N(C)C(C(=O)N3CCCCC3C)=C2)cc1 (stereo not drawn)	102	94	x	105
27	Cc1nc2cc(COC(=O)c3ccccc3)ccc2s1	93	101	21	x
28	O=C(CN1C(=O)c2cccnc2Sc2ccccc21)N1CCN(c2ccccc2F)CC1	98	86	-23	109
29	COc1ccc(N2CC(NC(=O)c3ccc(S(=O)(=O)N4CCCC4)cc3)CC2=O)cc1 (stereo not drawn)	101	100	x	103
30	CN(C)C1(CNC(=O)COc2ccc(F)cc2)CCCCC1	x	x	-16	105

# Other records
nr	SMILES	Sa growth inh	Sa growth inh second temp	HCMV UL50-53 inh	GIV-Gai inh
31	CCc1ccc(/C=C/C2=CC(C)(C)NC(=S)N2)cc1	105	84	x	105
32	Cc1cc(C)c(S(=O)(=O)NCC(c2ccco2)N2CCOCC2)c(C)c1 (stereo not drawn)	107	94	x	96
33	CN(C(=O)COC(=O)Cc1ccc(Br)cc1)c1ccccc1	129	86	-23	x
34	CC(c1cccs1)n1nccc1NC(=O)c1cnc2ccccc2n1 (stereo not drawn)	107	79	-46	x
35	Cc1cc(C)c(CN(C)C)c(O)c1	103	95	0	106
36	CC(C)Oc1ccc(C(=O)Nc2ccnn2C2CCCCC2)cc1	105	98	8	x
37	O=c1c2ccccc2c(/C=N/c2ccnn2Cc2ccco2)c(O)n1-c1cccc(C(F)(F)F)c1	109	100	-9	x
38	NS(=O)(=O)c1ccc(CCNC(=O)C2CCN(c3nc4ccccc4n3Cc3ccc(F)cc3)CC2)cc1	97	91	3	98
39	CCSc1nc2ccccc2n1CC(=O)N1CCOCC1	88	80	-8	104
40	Cc1sc(=[N+]2CCCCC2)sc1SCC(=O)O	88	81	-26	x

# 16 structures already listed, arranged by molecular weight, highest first:
nr	SMILES	Sa growth inh	Sa growth inh second temp	HCMV UL50-53 inh	GIV-Gai inh
23	CCc1cccc(C)c1NC(=O)c1cc(S(=O)(=O)N(Cc2ccc(C(=O)OC)cc2)Cc2ccc(OC)c(OC)c2)ccc1F	147	100	x	107
38	NS(=O)(=O)c1ccc(CCNC(=O)C2CCN(c3nc4ccccc4n3Cc3ccc(F)cc3)CC2)cc1	97	91	3	98
37	O=c1c2ccccc2c(/C=N/c2ccnn2Cc2ccco2)c(O)n1-c1cccc(C(F)(F)F)c1	109	100	-9	x
29	COc1ccc(N2CC(NC(=O)c3ccc(S(=O)(=O)N4CCCC4)cc3)CC2=O)cc1 (stereo not drawn)	101	100	x	103
24	CC(C)CCn1c(=O)c2ccccc2n2c(=O)n(CC(=O)Nc3ccccc3F)nc12	x	x	-5	96
32	Cc1cc(C)c(S(=O)(=O)NCC(c2ccco2)N2CCOCC2)c(C)c1 (stereo not drawn)	107	94	x	96
22	CC(C)c1nn2c(=O)cc(COC(=O)COc3ccccc3F)nc2s1	111	94	x	109
26	Cc1ccc(C2=NS(=O)(=O)N(C)C(C(=O)N3CCCCC3C)=C2)cc1 (stereo not drawn)	102	94	x	105
34	CC(c1cccs1)n1nccc1NC(=O)c1cnc2ccccc2n1 (stereo not drawn)	107	79	-46	x
25	CCSc1nnc(CCNC(=O)NC2CCCCC2)n1C	90	85	3	99
30	CN(C)C1(CNC(=O)COc2ccc(F)cc2)CCCCC1	x	x	-16	105
39	CCSc1nc2ccccc2n1CC(=O)N1CCOCC1	88	80	-8	104
40	Cc1sc(=[N+]2CCCCC2)sc1SCC(=O)O	88	81	-26	x
27	Cc1nc2cc(COC(=O)c3ccccc3)ccc2s1	93	101	21	x
31	CCc1ccc(/C=C/C2=CC(C)(C)NC(=S)N2)cc1	105	84	x	105
35	Cc1cc(C)c(CN(C)C)c(O)c1	103	95	0	106

# (cont.)
nr	SMILES	Sa growth inh	Sa growth inh second temp	HCMV UL50-53 inh	GIV-Gai inh
41	COCCNC(=O)c1ccc(-c2nc(CN3CCc4ccccc43)c(C)o2)cc1	103	83	x	105
42	Cc1ccc(-c2nn(CCC(=O)Nc3cccc(C(F)(F)F)c3)c(=O)c3ccccc23)cc1	102	85	x	97
43	Cc1cccc2c(C(=O)N3CCN(c4c(C)n(C)c(=O)n(C)c4=O)CC3)cc(-c3ccccc3)nc12	x	x	-31	101
44	O=C(CSc1n[nH]c(=O)n1Cc1ccco1)Nc1ccccc1Cl	100	90	-14	106
45	CC(C)C/C=C1\CC/C(=C\c2ccc(N(C)C)cc2)C1=O	73	81	-23	-74*
46	NC(=O)c1cccc2cccc(Sc3ccccc3)c12	116	97	-34	99
47	O=C(Nc1nc2c(ccc3ccccc32)o1)c1cccs1	x	x	-33	94
48	Cn1c(=O)c2c(nc(N3CCCCCC3)n2CC(O)COc2ccc(Cl)cc2)n(C)c1=O (stereo not drawn)	x	x	-10	104
49	COc1ccc(OC)c(NC(=O)N2CCC3(CC2)Oc2ccccc2C(=O)N3Cc2ccccc2F)c1	103	97	-7	100
50	COC(=O)c1ccccc1NC(=O)c1ccc2c(Cl)c3c(nc2c1)CCC3	118	95	-5	100
51	CCOc1ccc(Nc2cc(C)c(C#N)c3nc4ccccc4n23)cc1	106	86	-38	107
52	COc1ccc(N2CCC(CNS(=O)(=O)c3cccc(Cl)c3)C2)cc1 (stereo not drawn)	89	68	x	104
53	c1nc(NCc2ccc3c(c2)OCO3)c2ccsc2n1	88	86	-17	x
